Compound activity as filed in PubChem BioAssay.
PINK1 expr mod: A Quantitative High throughput Screen to Identify Chemical Modulators of PINK1 Expression; 0.2% of 410,000 active; Potency, µM (titrated, usually from 76.6 µM), for the others: at the top dose activation (PINK1 increase), usual class: activators; PINK1 immunofluorescence, high-content cytometry, 24 h; active = well fitted activation curve with a large enough effect; inconclusive = small, poorly fitted or top-dose-only effect; inactive = flat fitted curve, though single readings scatter; cell line not stated here;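 also: potency is read from the fitted curve at half-maximal effect; % of control where 0% means no effect; nearly all actives have a fitted effect of over 65% in size; a mitochondrial uncoupler was the plate control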
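PINK1 protein level read as immunofluorescence by microplate cytometer in a fixed, stained stable cell line after 24 h exposure to five compound concentrations, with CCCP as control.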
D2 agonist: Beta-Arrestin HTS for Positive Allosteric Modulators of the Human D2 Dopamine Receptor: Agonists; activation, % (test concentration not listed); 0.084% of 360,000 active; D(2) dopamine receptor (Homo sapiens), P14416; DiscoveRx PathHunter D2 beta-arrestin, luminescence, 90 min; 100% = 57 uM dopamine signal; in the data active = activation above about 40%; inconclusive = about 15% to 40%; inactive = below about 15%; also: compound concentration not given in the record; the text of the record calls up to 30% inactive
Target sequence (P14416 whole entry, looked up): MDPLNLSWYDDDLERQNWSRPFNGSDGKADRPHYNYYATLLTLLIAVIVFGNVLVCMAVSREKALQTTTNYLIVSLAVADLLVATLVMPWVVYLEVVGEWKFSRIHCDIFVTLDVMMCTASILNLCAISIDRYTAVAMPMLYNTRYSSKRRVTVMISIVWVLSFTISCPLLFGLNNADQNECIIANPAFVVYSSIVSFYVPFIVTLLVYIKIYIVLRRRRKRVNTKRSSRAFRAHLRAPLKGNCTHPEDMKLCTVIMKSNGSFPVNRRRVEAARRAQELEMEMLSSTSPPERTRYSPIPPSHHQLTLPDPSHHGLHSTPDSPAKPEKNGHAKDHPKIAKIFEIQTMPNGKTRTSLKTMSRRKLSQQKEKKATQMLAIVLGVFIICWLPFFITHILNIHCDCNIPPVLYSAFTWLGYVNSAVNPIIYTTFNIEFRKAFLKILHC
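Agonist mode: compounds alone added to overnight-plated D2 PathHunter cells for 90 min at 37 C, with 57 uM final dopamine (EC100) defining full response. Beta-arrestin recruitment detected by chemiluminescent reagent, read after 1 h at ambient temperature.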
TRPML1 agonist: qHTS for Agonists of the Human Mucolipin Transient Receptor Potential 1 (TRPML1). Mucolipin-1 (Homo sapiens), Q9GZU1. TRPML1-expressing cells, Ca2+ dye fluorescence, FDSS; host cell line not named in the record; reference of the full effect not given here. activation, % (no concentration beside the values). 0.12% of 410,000 active. AID 624414, 2012; in the data active = activation above about 50%; inconclusive = about 30% to 50%; inactive = below about 30%; also: 0% is about no effect; the text of the record puts the active cut at 80%
Target sequence (Q9GZU1 whole entry, looked up): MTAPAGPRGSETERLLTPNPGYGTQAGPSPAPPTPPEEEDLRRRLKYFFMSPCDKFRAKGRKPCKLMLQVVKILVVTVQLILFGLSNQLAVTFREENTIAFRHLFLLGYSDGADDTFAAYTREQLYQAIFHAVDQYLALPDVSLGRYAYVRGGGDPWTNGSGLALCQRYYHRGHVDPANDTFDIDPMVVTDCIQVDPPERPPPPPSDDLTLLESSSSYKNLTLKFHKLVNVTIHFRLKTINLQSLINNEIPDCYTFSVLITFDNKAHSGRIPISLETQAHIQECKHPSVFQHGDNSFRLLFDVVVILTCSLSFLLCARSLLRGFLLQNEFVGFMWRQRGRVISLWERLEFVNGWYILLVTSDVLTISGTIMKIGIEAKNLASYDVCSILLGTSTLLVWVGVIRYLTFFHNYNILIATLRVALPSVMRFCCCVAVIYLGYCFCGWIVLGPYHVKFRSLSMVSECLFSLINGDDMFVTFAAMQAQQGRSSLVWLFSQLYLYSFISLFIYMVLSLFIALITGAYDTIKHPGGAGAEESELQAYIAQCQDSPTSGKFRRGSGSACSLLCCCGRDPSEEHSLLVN
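Tetracycline-induced TRPML1-DL cells are seeded and incubated overnight before loading with a no-wash Ca2+ dye and quencher. Agonist activity is taken from the 110 s fluorescence read following compound pin-transfer on an FDSS, before EC80 54-4 challenge.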
D2 PAM: Beta-Arrestin HTS for Positive Allosteric Modulators of the Human D2 Dopamine Receptor: Potentiators; AID 624464, 2012; DiscoveRx D2 beta-arrestin cells, luminescence, 90 min; 100% = 57 uM dopamine signal; potentiation, % (concentration not given with the values); 0.23% of 360,000 active; D(2) dopamine receptor (Homo sapiens), P14416; active = potentiation of 50% or more; inconclusive = 30% to 50%; inactive = 30% or less;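 also: compound concentration not given in the record; tested on top of an EC20 dose of dopamine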
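D2 cells co-treated with compound plus 50 nM dopamine (EC20) for 90 min at 37 deg C to detect potentiation. Beta-arrestin recruitment was read as enzyme-fragment luminescence after 1 h at ambient temperature. Full response was set by 57 uM dopamine.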
Six1-Eya2 blk: qHTS Assay for Inhibitors of the Six1/Eya2 Interaction; 0.56% of 360,000 active; AlphaScreen GST-Six1/His-Eya2 binding, biochemical; hits give low values; control for the full effect not named in the record; activity change, % (concentration not given with the values); AID 651725, 2012; in the data active = activity change below about -65%; inconclusive = about -30% to -65%; inactive = above about -30%; also: % is scaled to controls: 0 for no effect and ±100 for the full control effect
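Compounds are tested against tagged Six1 and Eya2 proteins bridged by glutathione donor and nickel acceptor beads; after a one-hour incubation at 37 °C without light, AlphaScreen emission is recorded.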
TRPML1 blocker: qHTS for Inhibitors of the Human Mucolipin Transient Receptor Potential 1 (TRPML1) | Mucolipin-1 (Homo sapiens), Q9GZU1 | TRPML1-inducible cells, Ca2+ dye fluorescence, FDSS; hits give low values; inhibition of EC80 agonist-evoked calcium signal | activity change, negative = inhibition, % (test concentration not listed) | 0.02% of 390,000 active | AID 624415, 2012; in the data active means activity change below about -50%; inconclusive means about -30% to -50%; inactive means above about -30%;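 also: stimulus is agonist 54-4 at its EC80 concentration; % is scaled to controls: 0 for no effect and ±100 for the full control effect; compound concentration not given in the record; the text of the record puts the active cut at -80%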
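Tet-induced TRPML1-DL cells loaded with Ca8 no-wash calcium dye were read kinetically on FDSS. Compound addition was followed by EC80 agonist 54-4 (4 uM final); inhibition was read over 110 s.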
Active calls of the source: *; u = inconclusive; x = not tested or not shown; & = joins results of further samples; [ ] = dose if it differs, or a comment.

SMILES	PINK1 expr mod	D2 agonist	TRPML1 agonist	D2 PAM	Six1-Eya2 blk	TRPML1 blocker
CC(=O)Nc1ccccc1OC(C)C(=O)N1CCC(C)CC1 (configuration not stated)	-1.3%	0.9	-0.2	-2	-5	5
Cc1ccc(CCN2CC(C(=O)N3CCN(c4ccc(F)cc4)CC3)CC2=O)cc1 (configuration not stated)	14%[38.3 µM]	1.9	3.5	-2	-1	8
COc1ccc(/C=C(\CC(=O)O)c2nc3ccccc3o2)cc1	5.1%	-1.5	0.4	-4	4	3
CCOC(=O)N/N=C/c1ccccc1F	0.9%	-1.9	0.1	-12	5	11
COc1ccc(CC(=O)N/N=C(/C)c2ccco2)cc1	6.4%	2.6	-0.8	-6	0	30
CSc1cccc(NC(C)=O)c1	5.2%	0.2	0.2	-14	9	13
COc1cc([N+](=O)[O-])c2nc(C(=O)O)ccc2c1	1.5%	2.1	0.9	-1	1	13
COc1ccc(CCC(=O)Nc2cc(S(=O)(=O)N3CCCCC3)ccc2N(C)C)cc1	-0.8%	-3.3	-0.6	-2	-13	0
Cc1ccc(NC(=O)c2cc(Cl)nc3ccccc23)cc1	x	-0.1	0.1	13	0	-3
COc1ccccc1N1CCN(c2ncc(C(=O)N3CCN(c4cccc(Cl)c4)CC3)c3ccccc23)CC1	1.4%	-2.8	0.9	-4	2	-3
O=S1(=O)CCOC[C@H](CC2CCCCC2)N1Cc1ccccc1	6.3%	-0.8	1.7&-0.4	-6	5	-18
COc1ccc(S(=O)(=O)N2CCN(CCO)CC2)cc1-c1nnc2c3ccccc3c(C)nn12	1.3%	-9.0	-0.5	0	-4	5
Cn1c(=O)c2c(c3ccccc31)OC(=O)CC2c1cccc(Cl)c1 (configuration not stated)	2.3%	x	0.0	x	x	14
COc1cc(CN(CC2CCCO2)C(=O)c2ccco2)cc(OC)c1OC (configuration not stated)	-0.8%	2.0	0.0	-15	7	-14
CCCN(CCC)C(=O)c1cc(S(=O)(=O)N2CCCCC2)c[nH]1	0.2%	-7.4	-1.2	-5	2	-8
Cc1cc(OC(=O)c2ccc(OC(C)C)cc2)c([N+](=O)[O-])c(=O)[nH]1	2.2%	0.9	0.8	-4	6	-5
CC(=O)Nc1cccc(OC(=O)COc2ccc(Br)cc2)c1	-0.4%	-6.3	-1.0	-4	-2	7
O=S(=O)(NCc1nc2cccnc2n1Cc1ccccc1Cl)c1ccc2c(c1)CCCC2	1.3%	x	3.7	x	x	28
O=C(CN1C(=O)c2ccccc2C1=O)NC1CCS(=O)(=O)C1 (configuration not stated)	-0.4%	-2.7	-0.1	-19	5	16
CCCc1nc2ccc(Cl)cn2c1Cc1cccc(Cl)c1	3.5%	-2.0	-0.4	-9	-8	x
Nc1c(Cl)cc(C2=NCCn3c2c2ccc(C(F)(F)F)cc2[n+]3[O-])cc1Cl	-0.3%	0.6	0.0	-4	-8	2
O=C(c1ccc(Cl)c(S(=O)(=O)NCc2cccnc2)c1)N1CCCC1	-1.6%	-5.4	0.6	-8	14	-12
COC(=O)N/N=C(\C)c1ccc2ccccc2c1OC(F)F	-0.7%	-11	0.8	-13	4	3
O=C(Nc1ccc(Cl)c(C(F)(F)F)c1)c1cc2nc(-c3ccc4c(c3)OCO4)cc(C(F)(F)F)n2n1	2.2%	x	-0.3	x	x	-4
Cc1ccc(C(=O)NCC(=O)OCC(=O)c2ccc(C)c([N+](=O)[O-])c2)cc1	-0.6%	-10	1.7	-44	6	-13

Continuation.
SMILES	PINK1 expr mod	D2 agonist	TRPML1 agonist	D2 PAM	Six1-Eya2 blk	TRPML1 blocker
CCOC(=O)C1CCCN(C(=O)c2ccc(F)c(Cl)c2)CC1 (configuration not stated)	0.6%	3.4	-0.6	-3	4	x
CCc1nnc(NS(=O)(=O)c2ccc(NC(=O)c3cc(Cl)ccc3OC)cc2)s1	-3.0%	3.2	3.0	-1	-2	15
CC(C)(C)C(=O)COC(=O)c1cc(-c2cccnc2)nc2ccccc12	5.3%	1.8	1.3	-2	-5	8
CN1CCN(c2ccc(NC(=O)c3ccc(Cl)cc3Cl)cc2)CC1	1.0%	-5.7	-0.5	-9	0	-12
CC1Cc2ccccc2N1S(=O)(=O)c1cccs1 (configuration not stated)	-0.5%[38.3 µM]	-2.8	0.4	-4	11	68
O=C1c2cccc3c(N4CCCCC4)ccc(c23)C(=O)N1c1ccc(O)cc1	u	1.3	u	-6	10	15
Cc1cc(NCCO)nc(N2CCOCC2)n1	0.0%	-3.1	1.8	-10	-2	65
O=C(COC(=O)c1c2c(nc3ccccc13)CCCC2)c1ccc(Br)s1	5.5%	0.5	2.1	-11	-10	5
Cc1cc(C)cc(N(C(=O)c2snc(C(N)=O)c2N)C(C(=O)NCC2CCCO2)c2ccc(C)o2)c1 (configuration not stated)	-2.0%	-1.0	0.9	-4	-9	0
COCCNC(=O)C1CCCN(Cc2ccc(C(C)C)cc2)CC1 (configuration not stated)	0.7%	-4.4	-0.2	-9	3	x
COc1ccc(OC)c(NC(=O)c2cc3cc(C)ccc3n2C)c1	0.7%	x	0.4	x	x	32
Cc1ccc(C(=O)N2CCc3cc(CNC(=O)c4ccccc4F)ccc32)cc1	-0.8%	x	2.5	x	x	29
CC(c1ccccn1)N(C)C(=O)c1ccc2nc(Cc3cccc(Cl)c3)oc2c1 (configuration not stated)	0.1%	-2.7	0.9	14	-4	5
O=C1CSC(c2ccccn2)N1c1ccc(C(F)(F)F)cc1 (configuration not stated)	-3.3%	-2.7	2.5	0	-2	21
CCCCN(CCCC)C(=S)NC(=O)c1ccccc1Cl	0.5%	-8.1	3.1	-23	5	-3
COc1ccc(/C=N/NC(=O)c2ccccc2OC)cc1COc1ccccc1[N+](=O)[O-]	14%	2.8	-0.3	-7	-21	7
O=C(OCc1cc2ccccc2[nH]c1=O)C1CCCO1 (configuration not stated)	0.6%	0.0	1.4	-13	3	1
Cc1c(C(=O)NCCCN2CCCCC2)oc2ccc3c(c12)C(O)CC1(CCCCC1)O3 (configuration not stated)	2.3%	0.2	0.2	-11	4	3
CC[C@@H]1C/C=C\Cc2ccccc2[C@@H](C(=O)C[C@@H](O)CC(C)=O)OC1=O	4.3%	-3.9	-0.8	-6	7	-3
C[C@H]1CN([C@@H](C)CO)C(=O)c2cccc(NC(=O)Nc3ccc(C(F)(F)F)cc3)c2O[C@@H]1CN(C)S(=O)(=O)c1ccc(Cl)cc1	9.0%	7.1	0.1	5	-13	4
Cc1c(Br)c(C(F)(F)F)nn1CC(=O)NCc1ccco1	-0.8%	-1.5	0.2	0	3	-5
S=C1SC2(CCCCCC2)NC2=C1CCCCC2	7.0%	-7.7	-0.2	-16	-21	-3
CCOn1c(SCC)nc2ccccc2c1=O	-1.5%[38.3 µM]	-1.7	0.6	-7	9	2
O=C(O)C1=C[C@H](c2ccc(F)cc2)C[C@H](OCc2ccc(CO)cc2)O1	0.6%	-3.4	-0.2	-10	1	-3
CCOc1ccc(CCNC(=O)c2nnc(Cc3cc(OC)c(OC)c(OC)c3)o2)cc1OCC	2.0%	x	1.1	x	x	19

Profiles, looked up by structure. Order of values: PINK1 expr mod | D2 agonist | TRPML1 agonist | D2 PAM | Six1-Eya2 blk | TRPML1 blocker
Record of CC(C)(C)C(=O)COC(=O)c1cc(-c2cccnc2)nc2ccccc12 = 5.3% | 1.8 | 1.3 | -2 | -5 | 8
Record of Cc1cc(C)cc(N(C(=O)c2snc(C(N)=O)c2N)C(C(=O)NCC2CCCO2)c2ccc(C)o2)c1 (configuration not stated) = -2.0% | -1.0 | 0.9 | -4 | -9 | 0
Record of O=C1c2cccc3c(N4CCCCC4)ccc(c23)C(=O)N1c1ccc(O)cc1 = u | 1.3 | u | -6 | 10 | 15

More structures:
SMILES	PINK1 expr mod	D2 agonist	TRPML1 agonist	D2 PAM	Six1-Eya2 blk	TRPML1 blocker
COc1ccc(NC2c3ncccc3C(=O)N2Cc2ccccc2)c(OC)c1 (configuration not stated)	u	0.8	0.6	-13	-8	-12
Cc1ccc(OCC(=O)Nc2cnn(CCCC(=O)O)c2)c([N+](=O)[O-])c1	-1.9%	1.8	-0.1	3	14	2
C#CCOC(=O)/C(=C/C=C/c1ccccc1)NC(=O)c1ccccc1	-2.6%	-1.4	-0.3	-5	5	2
Clc1nc2c(-c3ccccc3)nnn2c2ccccc12	-1.8%	-3.2	1.1	6	1	4
CCOC(=O)C1CCN(C(=O)c2ccc3c(=O)n4c(nc3c2)CCCCC4)CC1	2.8%	-4.7	-1.3	6	-3	10
O/N=C1\CCCc2nnc3c(c21)CCCC3	4.7%	-2.1	-0.7	2	4	9
CCC1CCCCN1CCCNC(=O)C1CCC(Cn2c(=O)[nH]c3ccccc3c2=O)CC1 (configuration not stated)	x	-3.3	0.0	-17	-14	-8
CN(CCO)c1ncnc2c1sc1nc(N3CCOCC3)c3c(c12)CCC3	1.6%	-1.2	0.9	7	-4	28
COc1ccc2sc(NC(=O)NC(=O)c3c(Cl)cccc3Cl)nc2c1	-0.3%	1.6	2.5	-11	-18	-9
O=C(NC1CC1)C1=C[C@@H](c2c[nH]c3ccccc23)C[C@@H](OCc2ccc(CO)cc2)O1	-1.6%	2.2	2.1	-12	-3	-4
O=C1NC(Cc2ccc(O)cc2)c2nc3cc(F)ccc3c(=O)n2-c2ncccc21 (configuration not stated)	0.8%	1.7	x	x	-2	x
C/C(=N\NC(=O)Cn1cc([N+](=O)[O-])cn1)c1ccco1	2.4%	-2.5	0.5	-4	2	-10
CCOc1ccc(N(CC)S(=O)(=O)N2CCCC(C(=O)NCc3ccccc3Cl)C2)cc1 (configuration not stated)	-0.8%	x	0.4	x	x	34
C[C@H](CO)N1C[C@H](C)[C@@H](CN(C)S(=O)(=O)c2ccccc2)Oc2c(NC(=O)Nc3ccc(C(F)(F)F)cc3)cccc2C1=O	9.1%	0.8	0.0	-2	-8	3
CCCC(=O)Nc1cc(C(=O)O)ccc1S(=O)(=O)c1ccc(Cl)cc1	0.2%	1.9	-0.8	2	4	14
Cc1cc(-c2ccc(C)c(S(=O)(=O)NCc3ccc(OC(C)C)cc3)c2)on1	-1.3%	0.8	-0.2	-14	10	12
Cc1oc2ccc(O)c(CN3CCCCC3)c2c1C(=O)Nc1cccc(C(F)(F)F)c1	6.5%	x	-1.1	x	x	40
COc1cccc(N2C(=O)CSC23C(=O)N(Cc2ccccc2F)c2ccccc23)c1 (configuration not stated)	-0.1%	x	2.3	x	x	12

Sorted by value in PINK1 expr mod (highest first): 3 of the compounds above.
molecule,PINK1 expr mod
CN(CCO)c1ncnc2c1sc1nc(N3CCOCC3)c3c(c12)CCC3,1.6%
O=C(NC1CC1)C1=C[C@@H](c2c[nH]c3ccccc23)C[C@@H](OCc2ccc(CO)cc2)O1,-1.6%
Cc1ccc(OCC(=O)Nc2cnn(CCCC(=O)O)c2)c([N+](=O)[O-])c1,-1.9%

An unsorted share of the library; 1% or so of the library scored in one or more.
